Assay outcomes from PubChem.
HSV replic up = increases HSV replication in cells; HSV replication augmentation in cells, fold increase; maximum fold increase; 0.005% of 220,000 active; AID 1956;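 active = peak rise of 1.5-fold or more in the series; inconclusive = self-fluorescent or not available for retest; tested in PC3 cells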;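 also: first round at 10 µM; read as green reporter fluorescence; hits show the peak of a series up to 25 µM; 1 = signal of infected wells without compound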
PKD1 inh = inhibitors of human PKD1 kinase; Q15139; PKD1 kinase fluorescence polarization assay; inhibition, %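 (about 10 µM by stock and volumes)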; 0.056% of 200,000 active;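 active = inhibition of 50% or more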;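 also: controls were vehicle for no effect and a reference inhibitor for full effect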
Target sequence (Q15139 whole entry, looked up): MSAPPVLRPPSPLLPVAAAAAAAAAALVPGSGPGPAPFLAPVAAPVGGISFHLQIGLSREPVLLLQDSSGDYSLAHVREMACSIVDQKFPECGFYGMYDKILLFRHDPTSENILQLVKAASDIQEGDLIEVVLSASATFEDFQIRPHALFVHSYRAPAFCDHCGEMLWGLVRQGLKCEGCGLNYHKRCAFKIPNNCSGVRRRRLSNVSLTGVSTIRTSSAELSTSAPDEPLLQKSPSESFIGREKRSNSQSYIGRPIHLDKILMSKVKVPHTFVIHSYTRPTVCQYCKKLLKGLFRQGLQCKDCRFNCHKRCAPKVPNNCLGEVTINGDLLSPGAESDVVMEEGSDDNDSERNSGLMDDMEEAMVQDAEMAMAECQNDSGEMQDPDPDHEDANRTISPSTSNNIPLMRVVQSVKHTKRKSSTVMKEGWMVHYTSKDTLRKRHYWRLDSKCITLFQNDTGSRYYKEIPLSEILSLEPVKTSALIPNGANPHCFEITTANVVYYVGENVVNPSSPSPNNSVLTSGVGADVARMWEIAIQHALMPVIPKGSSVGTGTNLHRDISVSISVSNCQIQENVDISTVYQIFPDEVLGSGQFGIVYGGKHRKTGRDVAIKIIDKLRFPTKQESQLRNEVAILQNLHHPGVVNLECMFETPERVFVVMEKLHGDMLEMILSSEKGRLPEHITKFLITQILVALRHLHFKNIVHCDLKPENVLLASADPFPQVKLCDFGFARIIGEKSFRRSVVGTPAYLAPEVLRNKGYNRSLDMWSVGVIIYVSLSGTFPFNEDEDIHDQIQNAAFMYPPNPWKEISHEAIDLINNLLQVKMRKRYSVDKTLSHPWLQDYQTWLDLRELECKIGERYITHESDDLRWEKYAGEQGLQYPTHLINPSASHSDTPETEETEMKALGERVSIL
INS promoter inh = TRM-6 insulin promoter activity inhibition; TRM-6 cells (human fetal islet line), insulin promoter-eGFP reporter, imaging; reporter expression induced with tamoxifen; 0.9% of 130,000 active; inhibition, % at 2 µM; AID 1273;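 active = inhibition above the mean plus 3 SD, with well images judged a real hit on visual review, cut at about 60% in these data, passing the limit was not always enough; inconclusive = inhibition over the cutoff but images rejected on review; inactive = inhibition not above the cutoff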
GALR2 agonist = activates the human galanin receptor 2 | O43603 | AID 803 | activation, %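 (tested at 5 µM)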 | GALR2-expressing cells, agonist activation read-out | 0.48% of 140,000 active;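 active = above mean plus 3 SD of all compounds, about 5% in these data, not always enough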;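 also: 0% = vehicle buffer wells and 100% = reference agonist at full effect; tested in CHO reporter cells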
RGS16-Gao = regulators of human RGS16-Galphao interaction | O15492+P09471 | bead-based flow cytometry RGS16-Galphao binding, fluorescence; actives lie on both sides | binding response (% of control), % at 10 µM | 0.38% of 220,000 active | AID 1441;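 active = below 25% or above 175%, edge rows of some plates excepted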;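 also: Galphao activated by GDP with aluminum fluoride before binding; 100% = wells without compound and 0% = beads without RGS; some results beyond the cut were filed as inactive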
INS promoter inh cell count = also measured in INS promoter inh; calls as there; normalized cell count, %; measured here: cell count, toxicity; reference of the scale not given here;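 cells exposed to compound for 48 h; stained nuclei by imaging scaled within each plate; lower means fewer cells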
HSV replic up primary fold = further read-out of HSV replic up, marked with its call; fold increase; compound at 10 µM; measured here: primary screen fold increase 10 uM; tested in PC3 cells;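 GFP signal in the first replicate; 1 = infected wells without compound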
Starred values were filed as active, the others as inactive. Compounds as they come. About 1.3% of those tested had a hit in this group.

CCOC(CC(=O)NNC(=O)c1c(-c2c(Cl)cccc2Cl)noc1C)OCC was read as HSV replic up inactive, RGS16-Gao 95 and HSV replic up primary fold 0.89.
`Cc1ccc2c(C)c(C(=O)Nc3c(C)n(C)n(-c4ccccc4)c3=O)oc2c1C` gave HSV replic up inactive, PKD1 inh -12, INS promoter inh 2, GALR2 agonist -0.6, RGS16-Gao 97, INS promoter inh cell count 113 and HSV replic up primary fold 0.98.
Screening O=[N+]([O-])c1ccc(C2(O)CN(c3ccccc3)C3=[N+]2CCS3)cc1 (stereo not given) returned HSV replic up inactive, PKD1 inh 1, RGS16-Gao 103 and HSV replic up primary fold 1.1.
O=C(CN1CCCc2ccccc21)NC(=O)NCc1ccco1 was read as HSV replic up inactive, PKD1 inh 3, GALR2 agonist -2.2, RGS16-Gao 100 and HSV replic up primary fold 0.94.
Screening Cc1ccc(-c2nn3c(C)nnc3c3ccccc23)cc1S(=O)(=O)N1CCN(CCO)CC1 returned HSV replic up inactive, PKD1 inh -2, GALR2 agonist -1.1, RGS16-Gao 94 and HSV replic up primary fold 0.9.
CCSc1nnc(NC(=O)CSc2nc(CC)nc3c2c(=O)n(C)c(=O)n3C)s1 was read as HSV replic up inactive, PKD1 inh -9, GALR2 agonist 0.1, RGS16-Gao 105 and HSV replic up primary fold 0.98.
`CC1=C(C(=O)OCC(C)C)C(c2cccs2)NC(=S)N1` (stereo not given) gave HSV replic up inactive, PKD1 inh -10, GALR2 agonist 0.4, RGS16-Gao 98 and HSV replic up primary fold 1.
For COc1ccc(CCN(C(=O)C(F)(F)F)C(C(=O)NC2CCCC2)c2cccs2)cc1 (stereo not given) the results were HSV replic up inactive, PKD1 inh -6, INS promoter inh -65, GALR2 agonist -3.6, RGS16-Gao 88, INS promoter inh cell count 77 and HSV replic up primary fold 0.83.
Cc1ccc(SCc2ccc(C(=O)N3CCCC3)cc2)cc1 was read as HSV replic up inactive, PKD1 inh -3, INS promoter inh -62, RGS16-Gao 101, INS promoter inh cell count 110 and HSV replic up primary fold 1.1.
COC(=O)C1=C(C)N=C2SC(C#N)=C(N)N2C1c1ccc(OCc2ccccc2)cc1 (stereo not given) was read as HSV replic up inconclusive, PKD1 inh 2, INS promoter inh 17, GALR2 agonist -0.6, RGS16-Gao 88 and INS promoter inh cell count 97.
`Cc1ccc(N(CC(O)CN2CCCC2)S(=O)(=O)c2ccccc2)cc1` (stereo not given) gave HSV replic up inactive, PKD1 inh -2, INS promoter inh 13, GALR2 agonist -2.3, RGS16-Gao 100, INS promoter inh cell count 104 and HSV replic up primary fold 0.95.
For O=C(N/N=C/c1cccc(OC2CSC2)c1)c1ccccc1O the results were HSV replic up inactive, PKD1 inh -15, INS promoter inh -26, GALR2 agonist -0.1, RGS16-Gao 103, INS promoter inh cell count 74 and HSV replic up primary fold 1.

The final four records of the section above open the next one.
Cc1ccc(SCc2ccc(C(=O)N3CCCC3)cc2)cc1 was read as HSV replic up inactive, PKD1 inh -3, INS promoter inh -62, RGS16-Gao 101, INS promoter inh cell count 110 and HSV replic up primary fold 1.1.
COC(=O)C1=C(C)N=C2SC(C#N)=C(N)N2C1c1ccc(OCc2ccccc2)cc1 (stereo not given) was read as HSV replic up inconclusive, PKD1 inh 2, INS promoter inh 17, GALR2 agonist -0.6, RGS16-Gao 88 and INS promoter inh cell count 97.
`Cc1ccc(N(CC(O)CN2CCCC2)S(=O)(=O)c2ccccc2)cc1` (stereo not given) gave HSV replic up inactive, PKD1 inh -2, INS promoter inh 13, GALR2 agonist -2.3, RGS16-Gao 100, INS promoter inh cell count 104 and HSV replic up primary fold 0.95.
For O=C(N/N=C/c1cccc(OC2CSC2)c1)c1ccccc1O the results were HSV replic up inactive, PKD1 inh -15, INS promoter inh -26, GALR2 agonist -0.1, RGS16-Gao 103, INS promoter inh cell count 74 and HSV replic up primary fold 1.
Cc1ccc(CNC(=O)c2cccc(-n3cnnn3)c2)cc1 was read as HSV replic up inactive, PKD1 inh -4, GALR2 agonist -3.9, RGS16-Gao 102 and HSV replic up primary fold 0.94.
Screening Cc1cccc(N(C)S(=O)(=O)c2ccc3c(c2)NC(=O)CC(=O)N3)c1 returned HSV replic up inactive, PKD1 inh 0, INS promoter inh 6, RGS16-Gao 93, INS promoter inh cell count 96 and HSV replic up primary fold 0.91.
Screening O=C(Cc1ccccc1)NNC(=O)C1CCN(c2ncccn2)CC1 returned HSV replic up inactive, PKD1 inh -3, INS promoter inh 9, RGS16-Gao 107, INS promoter inh cell count 74 and HSV replic up primary fold 0.93.
`CN(C)c1ccc(NC(=O)CSc2nnc(-c3cccs3)n2Cc2ccco2)cc1` gave HSV replic up inactive, PKD1 inh -3, INS promoter inh 50, GALR2 agonist -2.4, RGS16-Gao 106, INS promoter inh cell count 104 and HSV replic up primary fold 0.88.
CCn1nc(C)c(C2C(C#N)=C(N)Oc3n[nH]c(C)c32)c1C (stereo not given) was read as HSV replic up inactive, PKD1 inh 1, INS promoter inh -9, GALR2 agonist -0.9, RGS16-Gao 102, INS promoter inh cell count 98 and HSV replic up primary fold 1.
Screening CCOC(=O)c1c(NC(=S)Nc2ccc(C)cc2)sc2c1CCC2 returned HSV replic up inactive, PKD1 inh -12, INS promoter inh -15, GALR2 agonist -1.1, RGS16-Gao 90, INS promoter inh cell count 145 and HSV replic up primary fold 0.96.
`CCCN1C(=O)c2cc(C(=O)NC3CCCCCC3)ccc2C1O` (stereo not given) gave HSV replic up inactive, PKD1 inh -3, GALR2 agonist -2.8, RGS16-Gao 67 and HSV replic up primary fold 0.71.
CC(C)=CCN1CCNC(=O)C1CC(=O)NCc1nc(C)c(C)s1 (stereo not given) was read as HSV replic up inactive, PKD1 inh 4, RGS16-Gao 100 and HSV replic up primary fold 0.94.
For Cn1c2ccccc2c(=O)n2c(=O)c3ccccc3cc12 the results were HSV replic up inactive, PKD1 inh -7, INS promoter inh 14, GALR2 agonist -1.5, RGS16-Gao 104, INS promoter inh cell count 128 and HSV replic up primary fold 0.98.
CC1(C)Cc2c(sc3nc(-c4cccs4)n(N)c(=O)c23)CO1 was read as HSV replic up inactive, PKD1 inh -1, GALR2 agonist -0.8, RGS16-Gao 102 and HSV replic up primary fold 0.95.
Screening COc1ccc(Br)cc1/C=C/C(=O)NCC(=O)O returned HSV replic up inactive, PKD1 inh 3, INS promoter inh 29, RGS16-Gao 101, INS promoter inh cell count 141 and HSV replic up primary fold 0.94.
For C/C(=N\N1CCN(c2ccccc2)CC1)c1ccncc1 the results were HSV replic up inactive, PKD1 inh -3, RGS16-Gao 108 and HSV replic up primary fold 1.
Screening CCOC(=O)CSc1nc(C(C)(C)C)cc(C(F)(F)F)c1C#N returned HSV replic up inactive, PKD1 inh 0, INS promoter inh 7, GALR2 agonist -0.5, RGS16-Gao 104, INS promoter inh cell count 135 and HSV replic up primary fold 0.97.
`CCn1c(SCC(=O)NCc2cccs2)nnc1-c1cccs1` gave HSV replic up inactive, PKD1 inh -5, INS promoter inh 12, GALR2 agonist -1.7, RGS16-Gao 100, INS promoter inh cell count 95 and HSV replic up primary fold 0.85.
For Cc1nc2c(-c3ccc(F)cc3)c(C)nn2c(C)c1CCC(=O)NC(C)CCc1ccco1 (stereo not given) the results were HSV replic up inactive, PKD1 inh -3, GALR2 agonist 0.5, RGS16-Gao 93 and HSV replic up primary fold 0.96.
O=C(/C=C/c1ccc(Cl)cc1)N(c1ccccn1)C1CCCCC1 was read as HSV replic up inactive, PKD1 inh -7, INS promoter inh -11, GALR2 agonist -0.6, RGS16-Gao 109, INS promoter inh cell count 155 and HSV replic up primary fold 0.95.
`Cc1nc2nc[nH]n2c(=O)c1NS(=O)(=O)c1ccc(C(C)(C)C)cc1` gave HSV replic up inactive, PKD1 inh 0, RGS16-Gao 97 and HSV replic up primary fold 0.9.
`CSc1nc2ccc(S(=O)(=O)N3CCCC3)cc2s1` gave HSV replic up inactive, PKD1 inh -13, INS promoter inh 0, GALR2 agonist -2.9, RGS16-Gao 97, INS promoter inh cell count 107 and HSV replic up primary fold 1.
`COc1ccc(-c2nnc(NC(=O)C3CC3)o2)cc1` gave HSV replic up inactive, PKD1 inh 1, INS promoter inh 27, RGS16-Gao 115, INS promoter inh cell count 95 and HSV replic up primary fold 1.
Screening Cc1ccc(CN2CCN(C(=O)c3ccco3)CC2)cc1 returned HSV replic up inactive, PKD1 inh -9, INS promoter inh -422, GALR2 agonist -1.5, RGS16-Gao 101, INS promoter inh cell count 44 and HSV replic up primary fold 0.98.
For CC(Sc1nc(-c2ccccc2)cc(C(F)(F)F)n1)C(=O)Nc1sc2c(c1C(N)=O)CCC2 (stereo not given) the results were HSV replic up inactive, PKD1 inh 0, INS promoter inh -3, GALR2 agonist -2.1, RGS16-Gao 152, INS promoter inh cell count 101 and HSV replic up primary fold 0.97.
CCOC(=O)CSc1nnc(Cc2cc(=O)[nH]c(=O)[nH]2)n1-c1cccc(OC)c1 was read as HSV replic up inactive, PKD1 inh 10, GALR2 agonist -1.1, RGS16-Gao 103 and HSV replic up primary fold 0.95.
`COc1ccc(-c2nnn(-c3ccc(Cl)cc3Cl)c2N)cc1` gave HSV replic up inactive, RGS16-Gao 101 and HSV replic up primary fold 0.92.
CCC(C)n1cnc2c(c1=O)c1nc3ccccc3nc1n2Cc1ccccc1OC (stereo not given) was read as HSV replic up inactive, PKD1 inh -9, INS promoter inh 6, GALR2 agonist -1.6, RGS16-Gao 97, INS promoter inh cell count 89 and HSV replic up primary fold 0.95.
For Cc1ccc2c(c1)N(Cc1ccccn1)C(=O)C(C)O2 (stereo not given) the results were HSV replic up inactive, PKD1 inh -10, INS promoter inh -6, GALR2 agonist -2.2, RGS16-Gao 111, INS promoter inh cell count 123 and HSV replic up primary fold 0.94.
CCc1c(C)nc(SCC(=O)Nc2c(C)n(C)n(-c3ccccc3)c2=O)[nH]c1=O was read as HSV replic up inactive, PKD1 inh -4, INS promoter inh 7, GALR2 agonist -1.7, RGS16-Gao 105, INS promoter inh cell count 68 and HSV replic up primary fold 1.1.
`COc1ccc(NC(=O)CSc2nc3ccccc3n2-c2ccccc2)c([N+](=O)[O-])c1` gave HSV replic up inactive, PKD1 inh 0, INS promoter inh -31, GALR2 agonist -1.4, RGS16-Gao 110, INS promoter inh cell count 137 and HSV replic up primary fold 0.95.
For O=C(NCCCN1CCCC1=O)c1cccc(C(F)(F)F)c1 the results were HSV replic up inactive, PKD1 inh -7, INS promoter inh 20, GALR2 agonist -1.2, RGS16-Gao 100, INS promoter inh cell count 69 and HSV replic up primary fold 1.2.
For CN(CC(=O)N1CCc2ccccc21)S(=O)(=O)c1cccs1 the results were HSV replic up inactive, PKD1 inh -4, INS promoter inh -2, GALR2 agonist 0.1, RGS16-Gao 102, INS promoter inh cell count 130 and HSV replic up primary fold 0.84.
`CCOC(=O)CN1CC23C=CC(O2)C(C(=O)NCc2ccc(C)cc2)C3C1=O` (stereo not given) gave HSV replic up inactive, PKD1 inh -6, GALR2 agonist 0.5, RGS16-Gao 100 and HSV replic up primary fold 0.92.
`N#CC1=C(N)SC(N)=C(C#N)C1CCC1CCCCC1` gave HSV replic up inactive, PKD1 inh -1, GALR2 agonist -0.3, RGS16-Gao 92 and HSV replic up primary fold 1.
For CCOc1ccc(OCc2cccc(C(=O)Nc3ccc(CN4CCCCC4)cc3)c2)cc1 the results were HSV replic up inactive, PKD1 inh -6, INS promoter inh 19, GALR2 agonist 0.2, RGS16-Gao 106, INS promoter inh cell count 115 and HSV replic up primary fold 0.52.
For COCCCn1c(Cc2csc(Nc3ccccc3)n2)nnc1SCC(N)=O the results were HSV replic up inactive, PKD1 inh -2, INS promoter inh 24, GALR2 agonist -1.2, RGS16-Gao 83, INS promoter inh cell count 120 and HSV replic up primary fold 0.89.
Screening Cc1sc(NC(=O)c2ccccc2F)c(CN2CCCCC2C)c1C (stereo not given) returned PKD1 inh -9, INS promoter inh 0, GALR2 agonist -0.4, RGS16-Gao 95 and INS promoter inh cell count 115.
CSc1cccc(NC(=S)N2CCCN(Cc3ccc(F)cc3)C2)c1 was read as HSV replic up inactive, PKD1 inh 2, INS promoter inh -62, RGS16-Gao 94, INS promoter inh cell count 101 and HSV replic up primary fold 0.81.
For CN(C)C=Nc1ncc2c3ccccc3n(Cc3ccccc3)c2c1C#N the results were HSV replic up inactive, PKD1 inh -5, GALR2 agonist 0.5, RGS16-Gao 118 and HSV replic up primary fold 1.
For CC(Sc1nc2c(c(=O)n(C)c(=O)n2C)n1Cc1cc2c(cc1Cl)OCO2)C(=O)O (stereo not given) the results were HSV replic up inactive, PKD1 inh -12, GALR2 agonist -1.2, RGS16-Gao 151 and HSV replic up primary fold 0.91.
